ALR inh: inhibitors of human ALR sulfhydryl oxidase, primary screen, biochemical, H2O2 detection, HRP-luminol luminescence, single point. FAD-linked sulfhydryl oxidase ALR (Homo sapiens), P55789. purified ALR, DTT oxidation. inhibition, % (no concentration beside the values). hit rate 3.8% among 290,000;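 active means mean and each replicate at 75% or more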;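 further: stock transfer was 7.5 nL into about 7.5 µL; 0% = neutral wells and 100% = wells with inactivated enzyme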
Target sequence (P55789 whole entry, looked up): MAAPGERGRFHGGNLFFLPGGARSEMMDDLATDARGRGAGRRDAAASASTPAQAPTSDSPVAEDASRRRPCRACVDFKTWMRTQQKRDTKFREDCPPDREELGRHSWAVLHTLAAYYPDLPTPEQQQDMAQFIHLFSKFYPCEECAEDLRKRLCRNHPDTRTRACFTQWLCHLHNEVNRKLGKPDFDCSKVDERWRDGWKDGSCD
LANA-H2A inh: blockers of LANA interaction with H2A/H2B – biochemical, FP readout, HTS, primary screen | AID 2629, 2010 | hit rate 0.6% among 320,000 | Protein LANA1 (Human herpesvirus 8 type P (isolate GK18)), Q9QR71 | cell-free LANA-H2A/H2B peptide, fluorescence polarization | inhibition, % (concentration not given with the values); in the data active means inhibition mostly above about 10%, no sharp cut-off; inactive means mostly below about 6.7%;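 further: stock transfer was 7.5 nL into about 10 µL; 0% = median of vehicle wells and 100% = median of positive control wells; one replicate is shown; the record names a cut of 25% in any replicate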
B2AR ag: beta2AR agonists driving receptor internalization, primary screen, cell-based, FAP fluorogen, flow cytometry; Beta-2 adrenergic receptor (Homo sapiens), P07550; Am2.2-beta2AR cells; reference of the scale not given here; response, % (test concentration not listed); hit rate 0.43% among 340,000; AID 504454, 2011;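 active means response above a set limit, near 3 SD of response in nonfluorescent compounds, cut at about 42% in these data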;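 further: stock transfer was 100 nL into about 11 µL; a reference agonist was the positive control; negative values mostly stem from fluorescent compounds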
UCH37 inh: inhibitors of human UCH37 deubiquitinase, primary screen, biochemical, Ub-AMC cleavage, fluorescence; Ubiquitin carboxyl-terminal hydrolase isozyme L5 (Homo sapiens), Q9Y5K5; purified proteasome/UCH37; inhibition, % (no concentration beside the values); hit rate 0.33% among 330,000;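 active means mean of two replicates above 20%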;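 further: 0% = compound-free wells with enzyme and 100% = wells lacking proteasome; stock transfer was 100 nL into about 20 µL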
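Assay system: Proteasome-bound UCH37. Buffer or medium: pH 7.4 Tris-HCl (50 mM) with ovalbumin, ATP-MgCl2, DTT. Incubation: 30 min preincubation with enzyme, 25 min cleavage at room temperature. Measured by: fluorescence, ex 355 nm, em 460 nm. Read-out basis: percent inhibition. Control set: wells without proteasome as full block, compound-free enzyme plus substrate as uninhibited.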
HNF4A DNA FP: change in binding of human HNF4A to DNA, primary screen, biochemical, fluorescence polarization, FITC-DNA | Hepatocyte nuclear factor 4-alpha (Homo sapiens), P41235 | 1 h | activity change, % at 10 µM | hit rate 0.3% among 360,000 | AID 1224865, 2016; in the data active means activity change above about 30%, passing the limit was not always enough;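 further: controls were the assay level and a saturating level of protein; the project sought stronger binding though the title names inhibitors; some compounds called inactive have numbers as strong as hits; positive values seem to mean higher polarization but the record does not say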
Target sequence (P41235 whole entry, looked up): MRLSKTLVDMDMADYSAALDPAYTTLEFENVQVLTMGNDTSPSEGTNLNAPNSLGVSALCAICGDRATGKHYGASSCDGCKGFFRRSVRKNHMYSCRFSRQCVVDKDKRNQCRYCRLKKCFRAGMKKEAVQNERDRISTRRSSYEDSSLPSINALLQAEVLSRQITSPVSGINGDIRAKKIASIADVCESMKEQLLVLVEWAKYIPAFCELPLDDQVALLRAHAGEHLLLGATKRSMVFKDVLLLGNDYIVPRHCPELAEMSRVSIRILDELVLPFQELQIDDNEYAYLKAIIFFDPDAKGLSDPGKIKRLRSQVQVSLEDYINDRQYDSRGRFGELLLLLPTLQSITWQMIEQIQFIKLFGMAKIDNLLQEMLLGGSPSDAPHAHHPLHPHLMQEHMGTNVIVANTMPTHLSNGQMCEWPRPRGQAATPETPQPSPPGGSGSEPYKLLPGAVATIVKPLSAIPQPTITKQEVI
FGF22 binding: binders of human FGF22 protein, primary screen, FGF22 synaptogenesis inhibitor project, biophysical, thermal shift, single point; hit rate 1.5% among 340,000; Fibroblast growth factor 22 (Homo sapiens), Q9HCT0; recombinant FGF22 thermal shift, SYPRO orange fluorescence; percent of sucrose octasulfate shift, DMSO zero; calls only at 9.99 µM;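 active means melting point raised past a set limit in the mean and every replicate; three in four hits are not shown here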
Target sequence (Q9HCT0 whole entry, looked up): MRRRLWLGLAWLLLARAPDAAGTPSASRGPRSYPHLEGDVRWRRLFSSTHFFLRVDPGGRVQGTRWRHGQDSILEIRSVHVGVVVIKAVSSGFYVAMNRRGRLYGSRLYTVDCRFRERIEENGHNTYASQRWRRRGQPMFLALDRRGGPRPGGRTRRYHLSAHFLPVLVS
E coli growth: E. coli growth inhibition, primary screen, OD600. Escherichia coli growth, 23 h; hits give low values. OD600 absorbance (no concentration beside the values). hit rate 0.21% among 330,000. AID 1053175, 2014;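 active means OD600 absorbance below the run mean of sample wells minus 3.6 SD, in any replicate, cut at about 0.56 in these data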;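 further: stock transfer was 300 nL into about 60 µL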
An asterisk follows results filed as active; i = inactive; · = not tested or not shown. An excerpt; the hit share may differ from the screen's.

SMILES	ALR inh	LANA-H2A inh	B2AR ag	UCH37 inh	HNF4A DNA FP	FGF22 binding	E coli growth
CC(NC(=O)CCNS(=O)(=O)c1ccccc1)c1ccccc1 (centres undefined)	-1.1	0.5	2.2	2.5	4.3	i	0.661
C=CC[C@@H](CC(=O)N[C@H](CO)Cc1ccccc1)C(=O)N[C@@H](C)COC(=O)[C@@H](CC=C)Cc1ccc(F)cc1	-0.5	0.4	-0.4	1.3	-0.9	i	·
CCc1ccc(OCC(=O)N/N=C(\C)c2ccc(-n3ccnc3)cc2)cc1	-2.6	-0.2	-10.2	·	-2.5	i	·
Cc1ccc(S(=O)(=O)N2CCCC2CNC(=O)C(=O)NCc2cccs2)cc1 (centres undefined)	·	3.3	2.3	3.4	1.0	i	0.698
Cc1ccc(NS(=O)(=O)c2ccc(C(=O)NCc3ccncc3)cc2)cc1	-1.2	2.5	-2.2	1.3	-1.4	i	0.692
CCN1CN(CCc2ccccc2)CNC1=S	-8.0	-4.6	-2.2	2.6	0.2	·	0.718
O=c1c2ccccc2oc2cc(OCc3ccc(F)cc3)cc(O)c12	-20.4	-3.4	-12.1	-6.3	-29.7	i	0.712
Cc1ccc(C)c(NC(=O)CCC(=O)NNC(=O)c2cccs2)c1	-27.6	4.8	0.8	·	2.5	·	·
COc1ccc(N(CC(=O)NCCSCc2ccco2)S(=O)(=O)c2ccccc2)cc1OC	-2.1	2.3	-5.4	4.9	8.8	i	0.711
Cc1cc(C(=O)N2C(C)CCCC2C)no1 (centres undefined)	·	6.2	11.3	1.8	0.1	i	0.662
CC(C)(C)OC(=O)C[C@@H]1C/C=C\C[C@@H](CC(=O)N(CCO)Cc2ccccc2)C(=O)NC[C@H](c2ccccc2)OC1=O	-11.4	0.6	23.2	-0.5	-0.4	i	·
CNC(=O)c1ccc(-c2cc3onc(-c4ccccc4)c3c(=O)n2C)cc1	-0.1	5.9	-13.5	1.6	4.3	i	0.714
CC(C)(O)C#Cc1ccc(CNC[C@H]2O[C@@H](n3cnc4c(N)ncnc43)[C@H](O)[C@@H]2O)s1	·	·	-1.3	-0.4	-1.4	i	0.723
COc1cc(/C=C2/C(=O)N(c3cccc(Br)c3)N=C2C)cc(OC)c1O	92.1*	-1.8	14.6	4.6	5.6	i	0.666
CCC(C)NC(=O)CCn1ccc2cc(S(=O)(=O)N3CCCC3)ccc21 (centres undefined)	4.4	-2.7	-6.4	3.5	1.6	i	0.713
CCn1c(SCc2ccc([N+](=O)[O-])cc2)nnc1C(C)NC(=O)c1ccc(C)cc1 (centres undefined)	-21.0	-0.6	-0.5	9.4	-2.3	·	0.719
CCCCn1cc2c(c1-c1cccc(C)c1)c(=O)n(C)c(=O)n2C	30.0	-3.5	3.0	-6.5	-3.9	i	0.658
CC1CCN(C(=O)COC(=O)/C=C/c2ccc(Br)o2)CC1	0.4	6.9	4.6	6.7	-12.1	i	0.661
CC(C)N(Cc1ccccc1)C(=O)COC(=O)C1CCCCC1	0.6	-6.1	-6.0	3.1	1.2	·	0.711
C/C(=N/Nc1ccc(C(=O)O)cc1)c1ccc2c(c1)Nc1ccccc1S2	·	·	11.5	-51.7	-0.3	i	0.669
CCCCc1ccc(S(=O)(=O)N/N=C(/C)c2ccncc2)cc1	-49.6	2.0	-6.8	·	-0.3	i	·
CC(=O)Nc1sc(C)c(C)c1C(=O)OCC(=O)N(CC(C)C)c1c(N)n(Cc2ccccc2)c(=O)[nH]c1=O	-6.6	3.0	9.2	-1.5	2.8	i	0.657
CCc1nc(Cl)c(C#N)c2c1CCCC2	-21.0	1.8	-0.3	4.2	-0.6	i	0.657
CCCCn1c(N)c(N(CCOC)C(=O)COC(=O)Cc2cccc(OC)c2)c(=O)[nH]c1=O	-0.6	0.7	-1.6	0.0	4.0	i	0.688
Cc1ccc(-c2nnc3ccc(SCC(=O)N4CCCc5ccccc54)nn23)cc1	2.1	7.1	-1.0	1.7	-3.0	·	0.657
CCCN(C(=O)c1c(CC)noc1C)c1c(N)n(Cc2ccccc2)c(=O)[nH]c1=O	-12.8	2.2	-6.0	-0.6	0.0	·	0.657
O=C(Nc1ccncc1)Nc1ccccn1	10.9	1.7	-4.7	-3.5	-1.8	·	0.739
CCC(C)(C)NC(=O)C(c1ccccc1Cl)N(C(=O)CCC(=O)Nc1cc(C)on1)C1CC1 (centres undefined)	-2.8	4.8	0.2	4.1	-1.5	i	0.63
O=C(NCCN1CCOCC1)c1ccc(Cl)cc1O	·	13.8	7.3	-8.5	0.7	i	0.642
COc1cccc(/C(O)=C2/C(=O)C(=O)N(CCN(C)C)C2c2ccccn2)c1 (centres undefined)	-14.7	0.4	-1.9	12.3	1.5	·	0.719
NCCCCc1ccc2ccc3cccc4ccc1c2c34	·	·	5.3	-178.0	-4.2	i	0.55
CCc1ccccc1-n1c(SCC(=O)NC)nnc1-c1ccco1	-5.5	1.7	-8.0	2.9	2.8	i	0.709
Nc1ncnc(Nc2ccc(F)c(Cl)c2)n1	-24.2	-1.9	-3.9	3.5	-0.4	i	0.577
COc1cccc(-n2nc(C(C)=O)c(=O)[nH]c2=O)c1	·	6.3	4.2	2.2	0.8	i	0.664
C=CCn1c(SCC(=O)N(CCC)C2CCS(=O)(=O)C2)nnc1-c1ccccc1OC (centres undefined)	0.1	-2.1	0.4	-2.8	3.3	i	0.688
COc1ccc(S(=O)(=O)Nc2ccc(C(F)(F)F)cc2)cc1OC	-4.6	-0.2	0.8	3.4	-3.4	·	0.767
COc1cccc(NC(=O)C2CCCN2C(=O)Nc2ccccc2F)c1 (centres undefined)	5.6	1.0	0.6	5.1	0.4	·	0.744
CCOC(=O)C1CCN(C(=O)c2sc3nc(-c4ccc(F)cc4)cn3c2C)CC1	-16.2	136.5*	10.4	·	2.6	·	·
COCc1nnc(NC(=O)COc2ccc3c(c2)OCO3)s1	-33.4	-2.4	8.7	2.9	-2.3	i	0.696
C/C(=N\Nc1nc(-c2cc(C)ccc2C)cs1)c1cc2c(ccc3ccccc32)oc1=O	·	0.3	8.1	·	12.3	i	·
CC[n+]1c(/C=C(/C)SC)sc2ccccc21	39.5	0.4	6.5	0.8	-0.8	·	·
COc1ccc(-c2cc(C3CCN(Cc4cccc(C(F)(F)F)c4)CC3)[nH]n2)cc1	-17.8	-2.8	2.1	4.8	-0.7	i	0.636
Cc1nc2nc(CCc3ccccc3)nn2c(C)c1Cl	-9.5	8.5	-14.1	-1.4	-1.0	·	0.65
CCc1c(C2(O)CCCCC2)[nH]c2ncccc12	0.9	-1.7	0.2	3.0	1.6	i	0.773
O=[N+]([O-])c1cnc(Sc2ccncn2)s1	-12.8	-0.6	91.8*	8.6	-0.9	i	0.434*
CC(=O)NNC(=O)c1nc(-c2ccccc2)c(C)o1	-5.4	-1.8	0.8	-1.1	-1.0	i	0.683
O=C(CCc1nc2ccccc2c(=O)[nH]1)NCc1ccccn1	1.2	0.5	9.8	3.0	-5.4	i	0.666
Cc1cc(C)nc(SCC(=O)N/N=C\C(Br)=C\c2ccccc2)n1	-2.2	6.9	-14.3	·	1.4	i	·
CCOCCCNc1c(CC)c(C)c(C#N)c2nc3ccccc3n12	2.2	-1.6	0.1	-35.9	-0.8	i	0.702
COc1ccc(C(CNC(=O)C(CC(C)C)NS(=O)(=O)c2ccc(C)cc2)N2CCOCC2)cc1 (centres undefined)	-2.1	4.3	-0.5	-1.1	2.7	i	0.679
COc1ccc(N2CCN(CC(=O)Nc3nc4c(s3)CC(C)CC4)CC2)cc1 (centres undefined)	54.2	-2.2	-5.1	17.0	0.9	·	0.717
CC1(NS(=O)(=O)c2ccc(Cl)s2)CCS(=O)(=O)C1 (centres undefined)	0.6	4.2	3.5	2.3	5.8	i	0.622
CN(C)CCCN(C(=O)c1ccc(S(=O)(=O)N2CCc3ccccc3C2)cc1)c1nc2ccc(F)cc2s1	-2.9	-9.5	49.4*	·	57.0*	i	·
Cc1ccc(-c2csc(SCC(=O)c3c(N)n(C4CC4)c(=O)[nH]c3=O)n2)cc1	·	·	0.2	1.9	5.8	i	0.733
CCOc1cc(C(=S)N2CCOCC2)ccc1OS(=O)(=O)c1ccc(OC)cc1	-0.9	3.5	1.9	1.2	0.5	i	0.738
COc1ccc(N2C(=O)CC(NNC(=O)c3cc(C)oc3C)C2=O)cc1 (centres undefined)	43.6	-1.1	-18.1	0.4	2.4	i	0.654
[O-]/[N+](=C/c1ccccc1)c1ccccc1	-2.7	1.9	2.7	0.6	2.0	i	·
CC(C)Oc1cc(S(=O)(=O)N2CCCCC2)ccc1N	0.9	3.2	-0.6	-1.9	4.1	i	0.675
CCCN1CCC(=O)N([C@H](COc2ccccc2)CC(C)C)CC1	-1.1	-1.8	-2.4	1.2	-3.2	i	·
COc1ccc2c(c1)c(C(=O)OCCN(C)C)c(C)n2C	-3.1	-5.3	-5.2	0.7	-1.2	·	0.697
Remaining list, next part:
SMILES	ALR inh	LANA-H2A inh	B2AR ag	UCH37 inh	HNF4A DNA FP	FGF22 binding	E coli growth
CC(C)CCOc1ccc(Cl)cc1CN1CCOCC1	·	-4.6	5.6	0.4	-0.7	·	0.702
CCCn1c(SCc2ccc(Cl)cc2)nc2c1c(=O)[nH]c(=O)n2C	31.8	1.6	4.3	0.3	0.4	·	0.761
O=C(Nc1ccc2c(c1)nc1n2CCSC1)c1ccco1	98.8*	2.9	-2.2	-2.5	0.1	·	0.693
Cc1cccc(NC(=O)c2cnn(C)c2)c1C	-3.7	5.3	35.5	2.6	-0.9	i	0.672
Cc1ccccc1NC(=O)N1CCCN(c2ccc(C#N)cn2)CC1	-11.6	0.6	23.6	-0.9	-0.5	i	0.692
CCOc1ccccc1N1CCN(C(=O)c2ccc3[nH]c(C)c(C)c3c2)CC1	5.1	-2.0	-6.3	-2.8	-0.1	i	0.716
NC(=O)c1ccc(NCc2ccco2)c([N+](=O)[O-])c1	-2.6	1.0	8.4	7.6	-3.1	·	0.691
CCOC(=O)C1=C(CN2CC(C)CC(C)C2)NC(=O)NC1c1ccc2c(c1)OCO2 (centres undefined)	-32.3	-0.2	-3.1	4.8	1.0	i	0.718
Cc1ccc(CNC(=O)C(=O)NCC2OCCCN2S(=O)(=O)c2ccc(F)cc2)cc1 (centres undefined)	-6.4	-4.3	0.4	0.9	0.3	i	0.67
Cc1ccc[n+](Cc2ccc([N+](=O)[O-])cc2)c1	-1.2	3.9	0.4	0.3	0.6	i	0.634
Cn1ccnc1SCc1cn2cc(Br)ccc2n1	98.6*	7.6	-4.8	-1.6	-0.5	·	0.681
CC(=O)Nc1cccc(NC(=O)CCN2C(=O)c3ccccc3S2(=O)=O)c1	-0.8	2.3	24.2	1.0	-1.8	i	0.633
CC(=O)c1ccc(OCCCC(=O)NC(C)c2ccc(S(N)(=O)=O)cc2)cc1 (centres undefined)	·	-2.8	-11.0	2.6	-2.3	i	0.659
O=C(Cn1ccc(NC(=O)OCc2ccccc2)nc1=O)NCCc1ccccn1	-14.7	-6.5	0.7	1.4	-3.4	i	0.685
O=C(NC(=S)Nc1cccc2cc(O)ccc12)c1ccco1	94.5*	5.7	26.6	-0.6	0.4	i	0.713

By substructure, the compounds so far with a CF3 group (two)
SMILES	ALR inh	LANA-H2A inh	B2AR ag	UCH37 inh	HNF4A DNA FP	FGF22 binding	E coli growth
COc1ccc(S(=O)(=O)Nc2ccc(C(F)(F)F)cc2)cc1OC	-4.6	-0.2	0.8	3.4	-3.4	·	0.767
COc1ccc(-c2cc(C3CCN(Cc4cccc(C(F)(F)F)c4)CC3)[nH]n2)cc1	-17.8	-2.8	2.1	4.8	-0.7	i	0.636

Compound activity (PubChem)
